miR-21 FLuc: raises the signal of a miR-21 reporter; HeLa miR-21 FLuc reporter, luciferase, 48 h; Potency, µM (highest dose often 38.3 µM), for inactives: at the top dose reporter change, positive = more light; 340,000 tested, under 10 active; AID 2288; active = well fitted rising curve with a large enough effect; inconclusive = small, poorly fitted or top-dose-only effect; inactive = no such curve, though single readings can be large or run the other way;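 also: % of control where 0% means no effect; miR-21 action dims this reporter so a rising signal means less miR-21 action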
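HeLa miR-21-FLuc reporter line, endogenous miR-21; 2000 cells/well in DMEM/10% FBS; compound titration up to ~40uM final, 48 h, 37 degree Celsius; luciferase detection reagent, 15 min lysis, CCD luminescence.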
Rango release inh: inhibitors of RanGTP-induced Rango-importin beta complex dissociation; O95149+P62826; Biochemical FRET Rango-importin beta, RanGTP-induced dissociation; Potency, µM (titrated, usually from 46.1 µM), without a hit: at the highest dose activity change, negative = inhibition; 340,000 tested, 0.071% active; AID 540253; active means falling FRET ratio curve, often poorly fitted, with flat reads before Ran was added; inconclusive means other falling curves, or compound fluorescence or quenching; inactive means flat or rising ratio curve;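 also: potency is read from the fitted curve at half-maximal effect; % of control where 0% means no effect; nearly all actives have a fitted effect of over 45% in size; -100% = wells without RanGTP and RCC1; the record marks most hits as doubtful in a second field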
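FRET read at 45 min, room temperature: inhibitors block the CFP/YFP signal rise when RanGTP (0.6 uM Ran, 2 mM GTP, 0.2 uM RCC1) frees Rango (0.1 uM) from importin beta (0.25 uM). Pre-read after 5 min compound exposure flags interference.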
GLA inh pH 4.5: blocks human alpha-galactosidase A at pH 4.5; P06280; 230,000 tested, under 10 active; AID 1467; purified enzyme, 4-MU-alpha-Gal fluorescence, pH 4.5; activity change, negative = inhibition, % at 105 µM; inconclusive = small, poorly fitted or top-dose-only inhibition, or a rising curve; inactive = flat fitted curve, though single readings scatter; no compound was filed as active;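 also: 0% = full activity with enzyme and -100% = basal without enzyme; dose as in the result columns while the protocol names 77 µM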
Target sequence (P06280 whole entry, looked up): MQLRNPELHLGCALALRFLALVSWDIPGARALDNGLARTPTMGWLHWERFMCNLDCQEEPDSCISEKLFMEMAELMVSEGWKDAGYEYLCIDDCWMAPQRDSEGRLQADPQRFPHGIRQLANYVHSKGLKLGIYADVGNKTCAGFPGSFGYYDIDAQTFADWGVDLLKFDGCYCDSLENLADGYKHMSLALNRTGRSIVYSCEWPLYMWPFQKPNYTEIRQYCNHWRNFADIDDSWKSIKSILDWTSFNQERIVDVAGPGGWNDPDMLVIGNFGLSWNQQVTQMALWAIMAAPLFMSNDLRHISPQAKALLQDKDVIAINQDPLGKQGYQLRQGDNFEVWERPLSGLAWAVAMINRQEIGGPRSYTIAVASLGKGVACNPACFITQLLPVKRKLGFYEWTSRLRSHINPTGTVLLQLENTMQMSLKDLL
Rango complex inh: prevents formation of the Rango-importin beta complex | Q14974 | Rango CFP/YFP FRET sensor + importin beta, 45 min | Potency, µM (titrated, usually from 92.2 µM), for inactives: at the highest dose inhibition of complex formation | 340,000 tested, 0.031% active; active = rising FRET ratio curve, often small or poorly fitted; inconclusive = mostly compound fluorescence or quenching in the first reads; inactive = flat curves in all reads;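 also: potency is read from the fitted curve at half-maximal effect; 0% = DMSO wells and 100% = buffer wells lacking importin beta; nearly all actives have a fitted effect of over 15% in size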
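FRET biosensor Rango (snurportin 1 IBB between N-terminal EYFP and C-terminal Cerulean), 50 nM in PBS/1 mM DTT/0.02% Tween-20/0.1% BSA, preincubated 5 min RT with compound; 0.125 microM importin beta added, 45 min RT, CFP/YFP FRET ratio read.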
Active calls of the source: *; u = inconclusive; x = not tested or not shown. These rows are one share of the data (hit frequency here may not be typical).

Below each SMILES: miR-21 FLuc, Rango release inh, GLA inh pH 4.5, Rango complex inh
Cc1[nH]cnc1CSCc1ccc(F)cc1
 : -25%, -7%, -2, 0.5%
O=C(CSc1nnc(NC2CCCCC2)s1)NCc1ccco1
 : 2%, 1%, -7, -0.3%
CCOC(=O)Cc1nc(-c2ccc(Cl)cc2)n[nH]1
 : -18%, -4%, -2, -0.5%
CN1CCN(/N=C/c2ccc(-c3ccc([N+](=O)[O-])cc3)o2)CC1
 : -35%, 1%, -1, 21%
CCn1cc(CN2CCCC(CO)(Cc3ccc(F)cc3)C2)c2ccccc21 (centres undefined)
 : 27%, -19%, x, -3.0%
COc1ccc2nc(SCC(=O)Nc3ccc4sc(C)nc4c3)c(C#N)cc2c1
 : -10%, -9%, -1, 5.0%
CCCCn1c(=O)[nH]c(=O)c2c1nc(-c1ccc(-c3ccccc3Br)o1)n2CCOC
 : -4%, 1%, 2, -4.9%
Cc1onc(-c2ccccc2)c1C(=O)N/N=C/c1ccc([N+](=O)[O-])s1
 : 14%, 5%, -14, 0.6%
COCC(C)NC(=O)c1ccc(-n2nc(C(F)(F)F)cc2-c2cccs2)cc1 (centres undefined)
 : 16%, -15%, -4, 3.2%
COc1ccccc1C(=O)Nc1ccccn1
 : -37%, -9%, 2, -0.3%
O=[N+]([O-])c1cccc(-c2nc(NCc3ccccc3)c3ccccc3n2)c1
 : -19%, 7%, -12, 2.8%
COc1ccc(NC(=S)Nc2ccc(OC)cc2OC)c(OC)c1
 : 0%, 11%, 3, u
O=C(O)c1ccc(/C=N/Nc2nc(N3CCCCC3)nc(N3CCCCC3)n2)cc1
 : -3%, 6%, 0, -0.3%
CSc1ncccc1C(=O)OCc1ccccc1Cl
 : -5%, 2%, 5, -0.2%
CCOCC(=O)Nc1cccc(C(=O)OCC)c1
 : -5%, 33%, -7, 4.3%
Cc1ccc(C(=O)Nc2cccc(S(=O)(=O)N(C)c3ccccc3)c2)o1
 : x, -16%, x, -3.5%
COc1ccc2nc3cccc(OC)c3nc2c1
 : -18%, u, 1, u
CCCc1nc(SCC(=O)Nc2cc(Cl)ccc2OC)c2c(=O)n(C)c(=O)n(C)c2n1
 : 2%, x, 6, x
Cc1ccc(S(=O)(=O)Nc2c(C)n(C)n(-c3ccccc3)c2=O)cc1C(=O)NCc1ccccn1
 : -2%, -10%, 0, -1.4%
COc1ccc(N2C(=O)C(Cl)=C(N3CCCC3)C2=O)cc1
 : 1%, 22%, 0, 2.4%
Cn1ncc(Br)c1C(=O)N1CCOCC1
 : -7%, -12%, -17, 5.8%
CCC1(Cc2ccccc2)NC(=O)c2ccccc2O1 (centres undefined)
 : 0%, -3%, -14, 0.0%
COc1cc(S(=O)(=O)N(C)C2CCCCC2)c(C)cc1C
 : 0%, 11%, 1, 0.0%
O=C1CC(c2cccnc2)c2cc3c(cc2N1)OCO3 (centres undefined)
 : -9%, u, 4, -5.8%
Cc1ccc(N(C(=O)CNC(=O)c2ccco2)C(C(=O)NC2CCCC2)c2ccncc2)cc1F (centres undefined)
 : -6%, 3%, x, 0.7%
Cc1ccccc1NC(=O)c1cnc2ccccn2c1=O
 : -27%, 0%, 7, -2.9%
O=C(CCN1CCOCC1)Nc1ccc2c(c1)CCC2
 : -18%, -3%, 3, -2.0%
CSc1ccc(S(=O)(=O)NCC(=O)OC(C)C(=O)NCc2ccccc2)cc1[N+](=O)[O-] (centres undefined)
 : x, 21%, x, -0.8%
COc1cccc(-c2nn(-c3ccccc3)cc2CN(C)C(C)c2ccon2)c1 (centres undefined)
 : 1%, 17%, -8, -0.3%
NNC(=O)CCc1nc2ccccc2[nH]1
 : -3%, x, 0, x
Cn1c(-n2c(CCN3C(=O)c4ccccc4C3=O)nc3ccccc3c2=O)nc2ccccc21
 : -4%, x, -5, x
COc1ccc(NC(=S)c2ccc(N(C)C)cc2)cc1
 : -72%, 8%, -1, 0.1%
Cc1c(N=Cc2ccc(O)c(Br)c2)cccc1[N+](=O)[O-]
 : -14%, -5%, -6, 4.9%
Cc1c(NC(=O)CN2C(=O)c3ccccc3C2=O)c(=O)n(-c2ccccc2)n1C
 : 1%, u, -8, -0.6%
CS(=O)(=O)N1CCCC(C(=O)Nc2ccc(Br)cc2F)C1 (centres undefined)
 : 0%, -1%, 8, -1.4%
O=C(Nc1ccc2c(c1)OCCO2)c1ccc2ccccc2n1
 : -44%, -18%, 4, -12%
O=C1S/C(=C\c2ccc(O)c([N+](=O)[O-])c2)C(=O)N1Cc1cccc([N+](=O)[O-])c1
 : 4%, 22%, -9, 2.9%
CCCS(=O)(=O)c1nnnn1-c1cccc(OC)c1
 : u, 7%, 8, 4.7%
CS(=O)(=O)c1ccc(C2=C(c3ccccc3)C(=O)OC2)cc1
 : x, 0%, -5, -1.0%
COC(=O)c1ccc(CSC2=NCCS2)cc1
 : -66%, 1%, -1, -0.3%
Cc1ccc(S(=O)(=O)N(C)CCCC(=O)N2CCCCC2)cc1
 : 0%, -6%, x, -0.1%
Cc1ccc(S(=O)(=O)Nc2cc(C(C)C)c(O)cc2C)cc1
 : -9%, 0%, -19, -5.2%
COC(=O)C(NC(=O)COc1ccccc1)(Nc1nc2c(s1)CCCC2)C(F)(F)F (centres undefined)
 : -8%, -3%, -2, 4.5%
COc1ccccc1Nc1nc(-c2sc(NC(=O)c3cccc(Cl)c3)nc2C)cs1
 : -15%, x, -8, x
Cc1cccc(C)c1NC(=O)N1CCC(n2cnc3ccccc32)CC1
 : 6%, -17%, -2, 1.2%
Cc1nn(-c2ccc(C(=O)O)cc2)c(N)c1-c1ccccc1
 : -47%, -18%, -1, 1.6%
c1ccc(-c2cn3c(n2)SCC3)cc1
 : -53%, -4%, 2, -1.2%
COc1ccc(OC)c(-n2c(=S)[nH]c3c(sc(=S)n3-c3ccccc3C)c2=O)c1
 : 2%, -9%, -16, -0.1%
COc1ccccc1CCC(=O)OCC(=O)Nc1c(C)nn(-c2ccccc2)c1C
 : x, 16%, x, -1.8%
O=C(c1cc2cc(Br)cc(Br)c2oc1=O)N1CCOCC1
 : -4%, -17%, x, -4.6%
Cc1ccccc1-n1c(SCC(=O)Nc2ccccc2)nc2nc3c(cc2c1=O)CCCC3
 : 25%, -3%, 5, 0.0%
Cc1cc(C(F)F)nn1CC(=O)Nc1cc([N+](=O)[O-])ccc1F
 : 1%, -3%, 6, -5.2%
COc1ccc(N2C(=O)CSC2c2ccccc2F)c(OC)c1 (centres undefined)
 : 2%, 17%, x, -3.5%
CCc1sc(C(=O)N2CCN(S(C)(=O)=O)CC2)cc1Br
 : -6%, -8%, -1, -4.8%
CCN(CC)S(=O)(=O)c1ccc(N2CCCCC2)c(C(=O)Nc2ccccc2N2CCOCC2)c1
 : -6%, -4%, 2, 2.3%
CN(C)C(CNC(=O)c1cccs1)c1cccnc1 (centres undefined)
 : -3%, -18%, -12, -0.9%
Cc1ccccc1C(=O)NCC(=O)OCC(=O)NC(C)C1CC2CCC1C2 (centres undefined)
 : x, 5%, x, -0.7%
COc1ccc2nc(SCC(=O)Nc3ccccc3)[nH]c2c1
 : -24%, 7%, -4, -4.4%
Cc1ccc(-c2cn3cccnc3n2)cc1
 : -47%, u, u, 0.6%
Cc1cccc(-n2ncc3c2CCCC3NC(=O)C2CCOCC2)c1C (centres undefined)
 : 11%, 3%, x, -3.2%

An excerpt from above in order of molar mass, lowest first:
Below each SMILES: miR-21 FLuc, Rango release inh, GLA inh pH 4.5, Rango complex inh
Cc1nn(-c2ccc(C(=O)O)cc2)c(N)c1-c1ccccc1
 : -47%, -18%, -1, 1.6%
COC(=O)C(NC(=O)COc1ccccc1)(Nc1nc2c(s1)CCCC2)C(F)(F)F (centres undefined)
 : -8%, -3%, -2, 4.5%
Cn1c(-n2c(CCN3C(=O)c4ccccc4C3=O)nc3ccccc3c2=O)nc2ccccc21
 : -4%, x, -5, x

The listing picks up; the 2 compounds before the break are reprinted first.
Below each SMILES: miR-21 FLuc, Rango release inh, GLA inh pH 4.5, Rango complex inh
Cc1ccc(-c2cn3cccnc3n2)cc1
 : -47%, u, u, 0.6%
Cc1cccc(-n2ncc3c2CCCC3NC(=O)C2CCOCC2)c1C (centres undefined)
 : 11%, 3%, x, -3.2%
CCOc1cccc(-c2nc(C(N)=O)c3[nH]c(=O)n(-c4cccc(Cl)c4)c3n2)c1O
 : -5%, -1%, -3, 4.2%
FC(F)(F)c1nnc2sc(-c3ccccn3)nn12
 : -2%, 7%, 3, -0.2%
Cc1cccc(NCc2ccc(O)c3ncccc23)c1
 : 18%, -11%, -1, u
CCOc1ccccc1NC(=O)CSc1nc2c(c(=O)n1C)SC(C)C2 (centres undefined)
 : 2%, 3%, 4, -0.4%
COc1cc(OC)c(/C=N/n2c(C3CCCCC3)n[nH]c2=S)c(OC)c1
 : 0%, 1%, x, -4.6%
CCNC(=S)N/N=C/c1ccco1
 : -4%, 2%, 6, 1.8%
Cc1ccc(CONC(=O)c2ccc([N+](=O)[O-])cc2)cc1
 : x, 0%, x, -7.4%
CC(C)(C)OC(=O)CNC(=O)c1nc[nH]c1C(=O)NCc1ccc(CNC(=O)OC(C)(C)C)cc1
 : 22%, -12%, x, 1.3%
C/C(=N\NC(=O)CNC(=O)c1cccc(F)c1)c1ccc2ccccc2c1
 : -3%, -11%, x, -0.4%
O=C(COc1ccc([N+](=O)[O-])cc1)NNC(=O)c1cccs1
 : 0%, 15%, -2, 0.0%
C=CCn1c(=O)c2ccccc2n2c(SC(C)C(=O)Nc3nc(-c4ccccc4)cs3)nnc12 (centres undefined)
 : -1%, 0%, -1, -4.0%
O=c1c2ccccc2nc(-c2ccc(Br)cc2)n1Cc1ccccc1
 : -1%, 1%, -7, 2.0%
CCN(CC)CCCC(C)NC(=O)c1cccc(S(=O)(=O)N2CCc3ccccc32)c1 (centres undefined)
 : 2%, -7%, -5, 5.9%
COC(=O)c1cc(C(=O)OC)cc(-n2c(C)cc(C(=O)COC(=O)CNS(=O)(=O)c3ccc(C)cc3)c2C)c1
 : -12%, -4%, -12, -2.5%
CC12CCC3(CO)COC(c4ccccc4O1)C2C3 (centres undefined)
 : -8%, -3%, 5, 0.0%
O=C(c1cccs1)N(c1ccc(F)cc1)C1C=CS(=O)(=O)C1 (centres undefined)
 : 0%, 11%, 6, -0.1%
c1coc(-c2nc3ccccc3s2)c1
 : x, -16%, x, -1.8%
Cc1cc(-c2nnc(CCC(=O)NCc3ccc(OC(F)(F)F)cc3)o2)no1
 : -8%, 5%, x, -1.0%
CCc1ccc(OCC(=O)NNC(=O)c2cc(S(=O)(=O)N(C)C)ccc2N2CCCC2)cc1
 : x, 25%, x, -4.2%
O=C(NCC(O)c1ccc([N+](=O)[O-])cc1)C1=COCCO1 (centres undefined)
 : x, 0%, x, 1.8%
O=C(COC(=O)/C=C/c1ccccc1[N+](=O)[O-])NCC1CCCO1 (centres undefined)
 : 1%, 1%, 1, 0.8%
CC(NC(=O)/C(C#N)=C/c1ccc(Cl)c([N+](=O)[O-])c1)c1ccccc1 (centres undefined)
 : u, -9%, -1, 0.2%
Cn1nnc2cc(C(=O)Nc3ccc4ccccc4c3)ccc21
 : -75%, 8%, 6, 6.3%
COc1ccc(CCNC(=O)C2CCCN(S(=O)(=O)N3CC(C)CC(C)C3)C2)cc1OC (centres undefined)
 : -5%, 8%, x, -1.7%
O=C(Nc1ccsc1C(=O)NC1CC1)c1ccccc1
 : 0%, 0%, 0, 2.6%
COc1cc(CCC(=O)NC2(C)CCS(=O)(=O)C2)cc(OC)c1OC (centres undefined)
 : x, u, x, u
CCNC(=O)OCc1cn(-c2ccc(Cl)cc2)nn1
 : -21%, 15%, 8, -1.8%
O=C(CN(c1ccc(F)cc1)S(=O)(=O)c1ccc2c(c1)OCCO2)NCc1ccccc1
 : 0%, 18%, 13, 3.1%
COc1ccc2c(c1)C(O)C(CO)C(C(=O)O)C2 (centres undefined)
 : x, 2%, x, 1.0%
CCc1nnc(SCC(=O)Nc2ccc(N3CCN(S(C)(=O)=O)CC3)cc2)o1
 : 0%, 7%, x, -0.4%
CN1C(C(=O)NCCc2cccs2)CC2Cn3c(nc4ccccc43)C21 (centres undefined)
 : 0%, 1%, -12, 0.9%

From PubChem
